# ID4 binder = binders of human ID4 protein, primary screen, biochemical, small molecule microarray, single point; DNA-binding protein inhibitor ID-4 (Homo sapiens), P47928; Flag-ID4 binding, fluorescence F/B; calls only; 1.2% of 31,000 active; AID 624137, 2012;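 active = spot signal over background at p below 0.07 in all four prints; compounds were printed on slides so no solution concentration is given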;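 also: a binder raises fluorescence above local background on the spot; about 2 pmol printed per array spot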
# Target sequence (P47928 whole entry, looked up): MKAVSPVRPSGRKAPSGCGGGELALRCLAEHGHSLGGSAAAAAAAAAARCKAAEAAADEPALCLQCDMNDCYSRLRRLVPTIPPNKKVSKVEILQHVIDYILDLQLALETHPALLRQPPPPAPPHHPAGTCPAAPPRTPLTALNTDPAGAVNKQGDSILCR
# Calls only; i = inactive; + = active, no number. Some of the compounds tested (hit frequency here may not be typical).
Molecule	ID4 binder
C[C@@H]1CN([C@@H](C)CO)S(=O)(=O)c2ccc(C#Cc3cccnc3)cc2O[C@H]1CN(C)C(=O)C1CC1	i
CC1=CCC2C(C)(CC[C@H](O)C2(C)C)C1COc1ccc2ccc(=O)oc2c1 (stereo partly drawn)	i
O=C(C[C@H]1C=C[C@@H](NC(=O)CCN2CCCCC2)[C@H](CO)O1)Nc1ccc(-c2ccccc2)cc1	i
CCOc1ccccc1NC(=O)Cn1cnc2ccccc2c1=O	i
C[C@H](CO)N1C[C@H](C)[C@H](CN(C)C(=O)C2CCC2)Oc2ncc(C#CC3CCCC3)cc2C1=O	i
CCCNC(=O)CSc1nc2nc(C)c(Cc3cccc(C)c3)c(C)n2n1	i
COc1cccc(-c2cnc3c(c2)C(=O)N([C@H](C)CO)C[C@H](C)[C@@H](CN(C)Cc2ccccc2)O3)c1	i
O=C1C(=O)N(Cc2ccco2)C(c2ccc(Cl)cc2)C1C(=O)c1cc2ccccc2o1 (stereo not drawn)	i
O=C(NCc1ccco1)c1cnn2cccnc12	i
C[C@H]1CN([C@@H](C)CO)C(=O)c2cc(-c3ccc(C#N)cc3)cnc2O[C@@H]1CN(C)C(=O)CN(C)C	i
Oc1cc2c(cc1O)CN(C(=S)NCCc1ccc(Cl)cc1)CCC2	i
COC(=O)CNC(=O)c1cc(-c2ccccn2)nc2ccc(Cl)cc12	i
CCO[C@H]1OC(C(N)=O)=C[C@@H](C2CCCCC2)[C@@H]1CCCO	i
CCn1c(SCC(=O)Nc2ccc3c(c2)OCCO3)nnc1-c1cccc(Cl)c1	i
Cc1cc(I)ccc1NC(=O)CN(c1cc(Cl)c(Cl)cc1Cl)S(C)(=O)=O	i
O=C(NCC[C@H]1CC[C@H](NC(=O)C2CC2)[C@H](CO)O1)c1ccc(F)cc1	i
Cc1ccccc1-c1cnc2c(c1)C(=O)N([C@@H](C)CO)C[C@H](C)[C@H](CN(C)C(=O)c1ccccc1)O2	i
C[C@@H]1CN([C@H](C)CO)C(=O)c2cc(C#C[C@@H](C)O)cnc2O[C@@H]1CN(C)C(=O)c1ccccc1F	i
Cn1cnc2nc(NCCO)nc(NCc3ccccc3)c21	i
CC(C)(C#N)NC(=O)C1Cc2ccccc2CN1S(=O)(=O)c1ccc(F)cc1 (stereo not drawn)	i
Cn1c(Cc2cccc3ccccc23)nnc1SCC(=O)N1CCc2ccccc21	i
Cc1ccc(C(=O)NCCCn2ccnc2)cn1	i
COc1ccccc1-c1c(C(F)(F)F)oc2cc(OCC(=O)Nc3cc(C)ccc3C)ccc2c1=O	i
C[C@H]1CN([C@@H](C)CO)C(=O)c2cc(C3=CCCC3)cnc2O[C@H]1CN(C)C(=O)c1ccccc1	i
Cc1ccc(Nc2nc(Oc3ccc(=O)[nH]n3)nc(N(C)C)n2)cc1	i
COc1cc(OC)c(NC(=O)CSc2nnc(-c3ccccc3)n2C)cc1Cl	i
COc1ccc(C(=O)CSc2nc(N)nc(SC)c2C#N)cc1	i
O=C(CSc1nnc(-c2ccncc2)o1)Nc1ccc(F)cc1	i
Cc1cc(C)c(NC(=O)CN(c2cc(C(F)(F)F)ccc2Cl)S(C)(=O)=O)c(C)c1	i
C[C@@H]1CN([C@@H](C)CO)C(=O)Cc2cc(N(C)C)ccc2O[C@@H]1CN(C)C(=O)NC1CCCCC1	i

# Given with each value named: entries from further up
> COc1cccc(-c2cnc3c(c2)C(=O)N([C@H](C)CO)C[C@H](C)[C@@H](CN(C)Cc2ccccc2)O3)c1
  ID4 binder: i

> O=C1C(=O)N(Cc2ccco2)C(c2ccc(Cl)cc2)C1C(=O)c1cc2ccccc2o1 (stereo not drawn)
  ID4 binder: i

> O=C(NCc1ccco1)c1cnn2cccnc12
  ID4 binder: i

> C[C@H]1CN([C@@H](C)CO)C(=O)c2cc(-c3ccc(C#N)cc3)cnc2O[C@@H]1CN(C)C(=O)CN(C)C
  ID4 binder: i

# The list goes on.
Molecule	ID4 binder
O=C(CSc1nnc(-c2ccc(Br)cc2)o1)c1ccc([N+](=O)[O-])cc1	i
CO[C@@H](CN(C)Cc1ccc2c(c1)OCO2)[C@@H](C)CN(C(=O)c1ccccc1)[C@@H](C)CO	i
CCCN(C)C[C@@H]1Oc2ncc(-c3cccnc3)cc2C(=O)N([C@@H](C)CO)C[C@@H]1C	i
COC(=O)c1ccccc1NC(=O)CNS(=O)(=O)c1c(C)cc(C)cc1C	i
CCCC#Cc1ccc2c(c1)O[C@H](CN(C)CC1CCOCC1)[C@@H](C)CN([C@@H](C)CO)S2(=O)=O	i
COC(=O)C[C@H]1C(C)(C)C2(O)OC34CC2C(=O)[C@]1(C)C3CC[C@]1(C)C4=CC(=O)O[C@H]1c1ccoc1 (stereo partly drawn)	i
C[C@@H]1CN([C@H](C)CO)S(=O)(=O)c2ccc(-c3cccc(C#N)c3)cc2O[C@@H]1CN(C)C(=O)Nc1ccccc1F	+
O=S(=O)(NCc1ccccn1)c1ccc(F)cc1	i
O=C(NCCNc1ccc(C(F)(F)F)cc1[N+](=O)[O-])c1cccc(Br)c1	i
O=C(NCCN1CCOCC1)[C@@]1(CCS(=O)(=O)c2ccccc2)N=C(c2ccc(OCCCO)cc2)O[C@H]1c1ccccc1	i
CO[C@H](CN(C)C(=O)C1CCOCC1)[C@H](C)CN([C@@H](C)CO)S(=O)(=O)c1ccccc1	i
C[C@H](CO)N1C[C@H](C)[C@@H](CN(C)C(=O)Nc2ccc3c(c2)OCO3)Oc2ncc(-c3cccnc3)cc2C1=O	i
Cc1nc(-c2ccccc2)sc1C(=O)C1C(=O)C(=O)N(CCN2CCOCC2)C1c1cccs1 (stereo not drawn)	i
COc1ccc(Cl)cc1NC(=O)C(C)n1nc(C)c([N+](=O)[O-])c1C (stereo not drawn)	i
O=S(=O)(Cc1noc(-c2ccc(OC(F)(F)F)cc2)n1)Cc1ccco1	i
COc1ccc(C(=O)On2c(-c3ccccc3)cc3ccccc32)cc1	i
C[C@@H]1CN([C@@H](C)CO)C(=O)c2cc(C#CCC3CCCC3)cnc2O[C@H]1CN(C)C(=O)CN(C)C	i
COc1ccc([N+](=O)[O-])cc1N(CC(=O)Nc1cccc(C)c1)S(C)(=O)=O	i
C/C=C/c1cnc2c(c1)C(=O)N([C@@H](C)CO)C[C@@H](C)[C@@H](CN(C)C(=O)C1CCCCC1)O2	i
COc1ccc(S(=O)(=O)N(C)CC(=O)Nc2ccc(C(N)=O)cc2)cc1Cl	i
Cc1ccc(Nc2nc(N)nc(CSCCO)n2)cc1	i
COC(=O)c1cc(=O)n2ccccc2c1C#N	i
CC(=O)c1cccc(NC(=O)C(C)NS(=O)(=O)c2ccc(F)cc2)c1 (stereo not drawn)	i
Cc1ccc(NC(=O)CCCOc2ccccc2)c([N+](=O)[O-])c1	i
O=C(C[C@@H]1C=C[C@H](NC(=O)c2cccc(F)c2)[C@@H](CO)O1)Nc1nccs1	i
O=C(COc1cccc(NC(=O)c2ccccc2[N+](=O)[O-])c1)c1ccc(F)cc1	i
C/C=C/c1cnc2c(c1)C(=O)N([C@@H](C)CO)C[C@@H](C)[C@H](CN(C)C(=O)c1ccc3c(c1)OCO3)O2	i
Cc1ccc(-c2cnc3c(c2)C(=O)N([C@H](C)CO)C[C@H](C)[C@@H](CN(C)Cc2ccccc2F)O3)cc1	i
Cc1ccnc(SCC(=O)c2cccc([N+](=O)[O-])c2)n1	i
CC(=O)N(C)C[C@@H]1Oc2cc(-c3ccncc3)ccc2S(=O)(=O)N([C@@H](C)CO)C[C@H]1C	i

# Of the compounds above, these contain a furan ring, fused or not.
Molecule	ID4 binder
O=C1C(=O)N(Cc2ccco2)C(c2ccc(Cl)cc2)C1C(=O)c1cc2ccccc2o1 (stereo not drawn)	i
O=C(NCc1ccco1)c1cnn2cccnc12	i
COC(=O)C[C@H]1C(C)(C)C2(O)OC34CC2C(=O)[C@]1(C)C3CC[C@]1(C)C4=CC(=O)O[C@H]1c1ccoc1 (stereo partly drawn)	i
O=S(=O)(Cc1noc(-c2ccc(OC(F)(F)F)cc2)n1)Cc1ccco1	i

# More structures
Molecule	ID4 binder
CC(C)=CC(=O)CC(O)(c1ccccc1)c1ccccc1	i
Cc1cc(S(=O)(=O)NCC(=O)O)ccc1Cl	i
CCC(=O)N[C@@H]1C=C[C@H](CC(=O)OC)O[C@@H]1CO	i
COc1ccccc1C(=O)CSc1nnc(-c2ccccc2Cl)n1-c1ccccc1	i
C[C@@H]1CN([C@@H](C)CO)C(=O)c2cc(C#CC3CC3)cnc2O[C@H]1CN(C)C(=O)CC1CC1	i
C=C[C@H]1[C@H](O[C@@H]2O[C@H](CO)[C@@H](O)[C@H](O)[C@H]2O)OC=C2C(=O)N3Cc4c([nH]c5ccccc5c4=O)[C@@H]3C[C@H]21	i
CSc1ccccc1NC(=O)CSc1nccn1C	i
O=C(O)c1cccc(CSc2nnc(Cc3ccccc3)o2)c1	i
C[C@@H]1CN([C@@H](C)CO)C(=O)c2cc(C3=CCCCC3)cnc2O[C@@H]1CN(C)C(=O)Cc1ccccc1	i
Cc1cc(Cl)ccc1NC(=O)c1ccc(OCC(=O)Nc2ccccc2)cc1	i
COC(=O)C[C@H]1C=C[C@H](NC(=O)Nc2ccc(C(F)(F)F)cc2)[C@@H](CO)O1	i
CCCN(C)C[C@H]1Oc2cc(C3=CCCCC3)ccc2S(=O)(=O)N([C@@H](C)CO)C[C@H]1C	i
O=C(CCSc1nnc(-c2ccccc2)o1)Nc1ccc(F)cc1	i
COc1ccc(NC(=O)C2CCCCC2C(=O)O)cc1OC (stereo not drawn)	i
CCC(=O)N[C@@H]1C=C[C@@H](CC(=O)NCc2ccccc2F)O[C@@H]1CO	i
O=C(N[C@@H]1C=C[C@@H](CC(=O)N2CCOCC2)O[C@H]1CO)c1cccc(F)c1	i
CC(=O)N(C)C[C@H]1Oc2ncc(C#Cc3cccc(F)c3)cc2C(=O)N([C@H](C)CO)C[C@H]1C	i
Cn1ncc(C(=O)Sc2ccc(Cl)cc2)c1-n1cccc1	i
CO[C@@H](CN(C)C(=O)c1ccccc1F)[C@@H](C)CN([C@H](C)CO)S(=O)(=O)c1ccc(Cl)cc1	i
C[C@H]1CN([C@@H](C)CO)C(=O)c2cccc(N(C)C)c2O[C@H]1CN(C)Cc1ccncc1	i
COc1ccc(CCC(=O)O)c(O)c1	i
CO[C@H](CN(C)C(=O)C1CCOCC1)[C@H](C)CN(C(=O)Nc1ccc(C(F)(F)F)cc1)[C@@H](C)CO	i
C[C@H]1CN([C@@H](C)CO)S(=O)(=O)c2ccc(-c3ccccc3)cc2O[C@H]1CN(C)CC1CC1	i
Cc1nc(-c2ccccn2)nc(SCC(=O)c2ccc(F)cc2)c1Cl	i
CC(=O)N(C)C[C@@H]1Oc2ncc(C#Cc3ccc(F)cc3)cc2C(=O)N([C@@H](C)CO)C[C@H]1C	i
CNC[C@@H]1Oc2ncc(-c3ccc(OC)cc3)cc2C(=O)N([C@H](C)CO)C[C@H]1C	+
C[C@H]1CN([C@@H](C)CO)S(=O)(=O)c2ccc(C#Cc3ccccc3F)cc2O[C@H]1CN(C)C(=O)Cc1cccnc1	i
Cc1nn(CC(=O)Nc2ccc(F)cc2)c(C)c1[N+](=O)[O-]	i
Cc1c(Cl)cccc1N(CC(=O)Nc1cc(Cl)cc(Cl)c1)S(C)(=O)=O	i
N#Cc1c(SCc2ccccc2Cl)nc2c(c1C(F)(F)F)CCc1occc1-2	i
COc1ccc(C)cc1NC(=O)CNS(=O)(=O)c1ccccc1	i
CCCNC(=O)C[C@@H]1C[C@H]2c3cc(N(C)C)ccc3O[C@H]2[C@@H](CO)O1	i
Cc1cccc(NC(=O)CSc2nnc(-c3cccs3)n2-c2ccccc2)c1	i
O=C(COc1ccc2c(-c3ccccc3)cc(=O)oc2c1)c1ccccc1	i
COc1cc(Cc2nnc(C(=O)NC(C)C)o2)cc(OC)c1OC	i
C[C@@H]1CN([C@@H](C)CO)C(=O)c2cc(NC(=O)C3CC3)ccc2O[C@H]1CN(C)CC1CCCCC1	i
CC(C)C#Cc1cnc2c(c1)C(=O)N([C@H](C)CO)C[C@H](C)[C@@H](CN(C)Cc1ccccc1F)O2	i
Cn1cnnc1SCC(=O)c1ccc([N+](=O)[O-])cc1	i
CC(C)c1nnc(NC(=O)CC(NC(=O)c2ccccc2)c2ccccc2)s1 (stereo not drawn)	i
O=C(CN1C(=O)c2ccccc2C1=O)Nc1ccc(-c2nc3ccccc3o2)cc1	i
CC(C)OC(=O)N(C)C[C@H]1OCc2ccccc2-c2ccccc2C(=O)N([C@@H](C)CO)C[C@@H]1C	i
COc1cc(NS(=O)(=O)c2c(C)oc3c(F)c(F)c(F)c(F)c23)cc(OC)c1OC	i
O=C(CSc1nnc(-c2ccccc2)n1-c1ccccc1)Nc1ccccc1F	i
N#Cc1cc(Oc2ccc(F)cc2)c(-n2nnc3ccccc32)cc1C#N	i
CC(=O)c1cccc(NC(=O)Cn2ccc([N+](=O)[O-])n2)c1	i
O=C(OCc1nc2ccccc2[nH]1)C12CC3CC(CC(C3)C1)C2	i
CNS(=O)(=O)c1cc(-c2nnc(Nc3cccc(O)c3)c3ccccc23)ccc1C	i
O=C(CSC1CC(=O)N(c2ccc(C(=O)O)cc2)C1=O)Nc1ccc2ccccc2c1 (stereo not drawn)	i
C[C@H](CO)N1C[C@H](C)[C@H](CN(C)C)Oc2ncc(-c3ccncc3)cc2C1=O	i
O=C(CSc1nc2ccccc2[nH]1)Nc1ccc(Br)cc1F	i
C[C@H]1CN([C@@H](C)CO)C(=O)c2cc(C#CCc3ccccc3)cnc2O[C@H]1CN(C)Cc1cccc(C(=O)O)c1	i
C[C@H](CO)N1C[C@H](C)[C@H](CN(C)Cc2cccc(F)c2)Oc2ncc(C#CC(C)(C)O)cc2C1=O	i
